Compound activity from PubChem.
miR-21 FLuc = qHTS Assay for Modulators of miRNAs and/orActivators of miR-21; HeLa miR-21 FLuc reporter, luciferase, 48 h; Potency, µM (highest dose often 38.3 µM), inactives show top-dose reporter change, positive = more light; 340,000 tested, under 10 active; active = well fitted rising curve with a large enough effect; inconclusive = small, poorly fitted or top-dose-only effect; inactive = no such curve, though single readings can be large or run the other way;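 also: % of control where 0% means no effect; miR-21 action dims this reporter so a rising signal means less miR-21 action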
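HeLa cells endogenously expressing miR-21, stably carrying CMV-driven firefly luciferase with a downstream miR-21 binding site, 2000 cells/well. Titrations up to approximately 40 uM, 48 hours; luciferase luminescence read.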
* = called active by the depositor; ? = inconclusive. Not all compounds are listed, so the mix of outcomes need not match the whole.

miR-21 FLuc | molecule
-2% | O=C(CCc1ccccc1)NC1CC(=O)N(c2ccccc2)C1 (stereo not drawn)
? | COc1cc(C2CC(=O)N(Cc3ccc(F)cc3)c3ccccc3S2)cc(OC)c1OC (stereo not drawn)
-12% | COc1ccc(CCNC(=O)C2CCCN(c3nc4c(C)cc(C)cc4s3)C2)cc1OC (stereo not drawn)
4% | COCCCNC(=O)c1c(-c2ccccc2)c(-c2ccccc2)nn(C)c1=O
19% | CCc1ccc(CNC(=O)C(CC)n2ccc3cc(S(=O)(=O)N4CCCCC4)ccc32)cc1 (stereo not drawn)
13% | CCc1ccc(-n2nc(CO)c(C(=O)NCc3cccnc3)n2)cc1
-31% | O=C(Cn1c(SCCOc2ccccc2)nc2ccccc21)N1CCOCC1
? | CC(=O)c1ccc(NC(=O)COc2ccccc2-c2nc(-c3ccc(C)cc3)no2)cc1
-2% | COc1ccccc1C(=O)n1nc(-c2ccccc2)nc1NCc1ccc(Cl)cc1
12% | COc1ccc(NC(=O)C2CCN(S(=O)(=O)c3c(C)noc3/C=C/c3cccs3)CC2)cc1Cl
-5% | COc1ccc(CCNC(=O)Cn2ncc3c(C)n(Cc4ccccc4F)c(C)c3c2=O)cc1OC
0% | COc1ccc(CCNC(=O)Cc2ccc(NC(=O)N3CCSc4ncccc43)cc2)cc1OC
0% | CCC(C)NC(=O)c1ccccc1NC(=O)C1CCN(S(=O)(=O)Cc2ccccc2)CC1 (stereo not drawn)
2% | CCOC(=O)CC(NC(=O)Cn1nnc(-c2ccc(C(F)(F)F)cc2)n1)c1ccc(C)cc1 (stereo not drawn)
0% | Cc1ccc(C)c(Nc2nc(-c3ccccc3)c3cc(Br)ccc3n2)c1
0% | CC(C)c1ccc(Cc2cn3cc(-c4cc5ccccc5oc4=O)nc3s2)cc1
-13% | O=C(NC(=S)NCc1ccco1)c1cccc(Cl)c1
12% | COc1ccc(-c2noc(CSc3nnc(Cc4ccccc4)n3-c3ccccc3)n2)cc1OC
-2% | CC(C)NC(=O)CCCN1C(=O)CCn2nc(-c3cccn3C)cc21
-1% | CCOc1ccc(CC(=O)NC2CC(=O)N(c3ccc(C)c(C)c3)C2)cc1 (stereo not drawn)
-6% | CCOc1ccc(S(=O)(=O)N(CC(=O)Nc2ccc(OC)c(Cl)c2)c2ccccc2)cc1
-1% | Cn1cnc(S(=O)(=O)N2CCCC(C(=O)Nc3cccc(C#N)c3)C2)c1 (stereo not drawn)
-10% | O=C(CCC1N=C2c3ccccc3N=C(SCc3ccc(F)cc3)N2C1=O)N1CCN(c2ccccc2)CC1 (stereo not drawn)
-2% | Cc1cc(C)c2c(c1)c(C)cc1nnc(SCc3ccccc3C#N)n12
-2% | COc1ccc(OC)c(NC(=O)c2c(NCc3ccc(OC)c(OC)c3)sc3c2CCC3)c1
-10% | Cc1ccc(NC(=O)c2sc3nc(-c4ccc(F)cc4)cn3c2C)c(C)c1
? | COc1ccc(CNC(=O)Cn2c(=O)nc(-c3ccccc3F)c3cc(Cl)ccc32)cc1OC
4% | Cn1nnc2c(NCc3c(F)cccc3F)ncnc21
14% | COc1ccc(CNC(=O)c2cc(Nc3ccccc3C)nc3ccccc23)cc1
-6% | O=C(NCc1ccccc1Cl)c1cc2ccccc2o1
3% | COc1ccc(C)cc1S(=O)(=O)Nc1cccc(-c2ccc(N3CCCC3)nn2)c1
0% | Cc1cc(C)cc(NC(=O)CCS(=O)(=O)c2ccc3c(c2)oc(=O)n3C)c1
-1% | C=CCc1c(C)nc2nc(SCC(=O)Nc3ccc(OCC)cc3)nn2c1C
? | Cc1nc2cc(-c3cccc(F)c3)nn2c(C)c1CCC(=O)NC1CCCCC1
? | Cc1ccccc1C(=O)Nc1ccc(C(=O)OCc2cc(=O)n3nc(C(C)C)sc3n2)cc1
-1% | CCc1cccc(CC)c1NC(=O)Cn1nnc2sc(-c3ccccc3)cc2c1=O
1% | Cc1ccc2c(CNCc3ccc(C)o3)c(C(=O)O)n(Cc3ccccc3C)c2c1
-4% | O=C(Cc1ccc(Cl)cc1)Nc1nnc2n1CCS2
-6% | CCOc1ccccc1CNC(=O)CCCn1c(=O)c2cccn2c2ccc(F)cc21
0% | CCOc1ccc(CCNC(=O)CCc2c(C)nc3c(-c4ccccc4)c(C)nn3c2C)cc1OCC
17% | CC(C)(C)c1ccc(C(=O)NC2(C(F)(F)F)NC(=O)N(CCc3ccccc3)C2=O)cc1 (stereo not drawn)
-7% | Cc1ccc(NC(=O)CCc2nc3cccnc3n2-c2ccccc2)cc1Cl
19% | CC(=O)Nc1ccc(S(=O)(=O)Nc2ccc(-c3cn4c(C)csc4n3)cc2)cc1
22% | CCc1ccccc1N(CC)C(=O)c1cc2c(s1)-c1ccccc1SC2
-8% | Cc1cccc(C)c1NC(=O)c1cc(S(=O)(=O)N2CCc3ccccc3C2)ccc1F
-5% | COC(=O)c1ccc2c(=O)n3nc(Nc4ccc(F)cc4F)sc3nc2c1
15% | COc1cc(-c2oc3ccc(C)cc3c(=O)c2O)cc(OC)c1OC
-3% | Cc1cc(C)cc(-n2ccnc2SCC(=O)Nc2ccc(C)c(Cl)c2)c1
20% | O=C(NCCc1ccccc1)c1nn(-c2ccccc2F)nc1CO
7% | COc1ccc(CC(=O)N2CC(=O)Nc3ccc(F)cc3C2c2ccccc2)cc1 (stereo not drawn)
0% | Cc1ccc(Cl)cc1-n1c(=O)c2sc3ccccc3c2n(Cc2ccccc2)c1=O
-4% | CCOc1ccc(Cn2c(CNS(=O)(=O)c3c(C)cc(C)cc3C)nc3cccnc32)cc1
3% | Cc1ccccc1-c1nc(SCC(=O)NCc2ccco2)c2c(=O)n(C)c(=O)n(C)c2n1
2% | Cc1ccc(NC(=O)CCC(=O)N2Cc3ccccc3Oc3ncccc32)c(C)c1
-2% | CCc1ccc(CNC(=O)c2cc(=O)[nH]c3ccc(S(=O)(=O)N4CCCCC4)cc23)cc1
3% | CN(C)c1ccc(C(CNC(=O)Cc2ccc(Cl)cc2)N2CCOCC2)cc1 (stereo not drawn)
-1% | CCOC(=O)c1ccc(NC(=O)Cn2cc(C(=O)c3ccc(Cl)cc3)c(=O)c3ccc(C)nc32)cc1
-4% | COc1cccc(-c2n[nH]c3c2C(c2ccccn2)N(C)C3=O)c1 (stereo not drawn)
2% | CCc1ccc(C2CC(=O)c3c([nH]c(C(=O)OC4CCCCCC4)c3C)C2)cc1 (stereo not drawn)
-9% | O=c1c2sccc2n(Cc2cc(=O)n3ccccc3n2)c(=O)n1-c1cccc(C(F)(F)F)c1

Continuation.
miR-21 FLuc | molecule
5% | COc1ccc(NC(=O)C(c2ccccc2)N(C)C(=O)/C=C\c2ccc3c(c2)OCO3)cc1 (stereo not drawn)
13% | Cc1ccc(C)c(CN2CCCN(CC(=O)Nc3ccc(C)c(C)c3)S2(=O)=O)c1
0% | CCc1ccc(NC(=O)c2cnc3c(-c4ccccc4)c(C)nn3c2C)cc1
13% | CCCCSCCCNC(=O)c1c[nH]c2ccc(S(=O)(=O)Nc3cccc(OC)c3)cc2c1=O
-66% | CCc1ccc(-n2nnc(-c3nc(-c4cccs4)no3)c2N)cc1
12% | COc1ccc(Cl)cc1NC(=O)c1cnc(N2CCCCC2)c2ccccc12
-3% | COc1ccccc1N1CCN(Cc2nnc(-c3ccccc3C)o2)CC1
17% | COc1ccc(S(=O)(=O)NCCc2sc3nc(-c4ccc(C)cc4)nn3c2C)cc1C
-20% | Cc1ccc(CCNC(=O)c2nnc(Cc3cccc(F)c3)o2)cc1
1% | O=C(CSc1c2c(nc3ccc(Cl)cc13)CCCC2)NCc1ccccc1Cl
-35% | Cn1nnnc1SCCNCc1ccc(OCc2ccccc2)cc1
0% | O=c1c2sc3ccccc3c2n(Cc2ccc(F)cc2)c(=O)n1Cc1ccccc1
-1% | Cc1cc(N2CCN(c3ccc(F)cc3)CC2)n2nc(-c3ccc(Cl)cc3)nc2n1
-2% | Cc1cc(C)c2c(=O)cc(C(=O)Nc3ccc(S(=O)(=O)N(C)Cc4ccccc4)cc3)oc2c1
27% | CCOc1ccccc1CN(CCc1ccc2c(c1)OCO2)Cc1cc(OC)c(OC)cc1OC
9% | O=C(NCCC1=CCCCC1)c1ccc2c(=O)n3nc(Nc4ccccc4)sc3nc2c1
-10% | Cn1cc(CN(C(=O)Nc2ccc(Cl)c(Cl)c2)C2CCCCC2)c2ccccc21
-9% | COc1cc(C2Oc3nc(SC)nnc3-c3ccccc3N2C(C)=O)cc(Cl)c1OC (stereo not drawn)
? | COc1ccc(C2=NC3(CCCCC3)N(CC(=O)Nc3ccc(C(C)C)cc3)C2=O)cc1
-4% | COc1ccccc1NC(=O)c1cc(S(=O)(=O)NCCc2ccccc2)ccc1F
-24% | O=S(=O)(Nc1cccc(-c2ccc(N3CCOCC3)nn2)c1)c1ccc(F)cc1F
-4% | COCCCNC(=O)NC(CCC(C)C)c1c(-n2cccc2)sc2c1CCN(C)C2 (stereo not drawn)
-4% | CCOC(=O)c1c(C)[nH]c(C)c1S(=O)(=O)N1CCCC(C(=O)Nc2cccc(CC)c2)C1 (stereo not drawn)
0% | COc1cc(OC)c(N(C)C(=O)c2sc3nc4n(c(=O)c3c2C)CCCCC4)cc1Cl
-1% | CN(C(=O)Cn1c(=O)n(CCCS(=O)(=O)C2CCCCC2)c(=O)c2ccccc21)c1ccccc1
-7% | CCOc1ccc(NS(=O)(=O)c2ccc3[nH]cc(C(=O)N4CCCCCC4)c(=O)c3c2)cc1
-25% | COc1cccc(-c2nc(SCc3cccc(Br)c3)n3[nH]c(=O)cc3n2)c1
12% | COc1ccccc1N1CCN(C(=O)CSc2nc(-c3ccc(C(C)C)cc3)no2)CC1
-15% | COc1cccc(-n2c(=O)c3sc4ccccc4c3n(CC(=O)Nc3ccccc3C)c2=O)c1
-43% | Cc1cc(F)ccc1NCc1ccccc1-c1nnc(-c2ccccc2Cl)o1

A draw from above in order of heavy-atom count, ascending.
miR-21 FLuc | molecule
-20% | Cc1ccc(CCNC(=O)c2nnc(Cc3cccc(F)c3)o2)cc1
0% | O=c1c2sc3ccccc3c2n(Cc2ccc(F)cc2)c(=O)n1Cc1ccccc1
17% | COc1ccc(S(=O)(=O)NCCc2sc3nc(-c4ccc(C)cc4)nn3c2C)cc1C

Additional results follow.
miR-21 FLuc | molecule
-1% | CC1CCN(S(=O)(=O)c2ccc3nc(N4CCN(c5ccc(F)cc5)CC4)ccc3c2)CC1
-1% | CC1CCCN(Cc2c(O)ccc3c(=O)c(-c4ccc(Cl)cc4)c(C(F)(F)F)oc23)C1 (stereo not drawn)
8% | CCOC(=O)c1ccc(N2C(=O)c3n[nH]c(C)c3C2c2ccccc2OC)cc1 (stereo not drawn)
? | O=C(c1ccc(Br)cc1)N1CCC(c2nc3ccccc3s2)CC1
-13% | CCOC(=O)c1nnc2c(-c3ccc(OC)cc3)c(C)nn2c1N
-46% | Cc1ccc(NC(=O)/C=C/c2ccc(C)o2)c(C)c1
4% | CCOC(=O)c1ccccc1NC(=O)CN1C(=O)CC(c2ccco2)Sc2ccccc21 (stereo not drawn)
-10% | Cc1cccc(Cn2cc3c(=O)n(CC(=O)Nc4c(C)cccc4C)nc-3c3cc(F)ccc32)c1
0% | O=C(NCc1cccs1)c1ccc2c(c1)N(Cc1ccccc1Cl)C(=O)c1ccccc1S2
1% | Cc1cccc(-c2nc3scc(CCNS(=O)(=O)c4c(C)noc4C)n3n2)c1
19% | Cc1cccc(C(=O)Nc2ccc(-c3nc4cc(C(C)C)ccc4o3)cc2)c1
2% | CCOC(=O)c1c(C)[nH]c(C)c1S(=O)(=O)N1CCCC(C(=O)Nc2ccc(C)c(N(C)C)c2)C1 (stereo not drawn)
3% | Cc1ccc(S(=O)(=O)C(CNC(=O)c2ccc(C(F)(F)F)cc2)c2ccco2)cc1 (stereo not drawn)
15% | CCn1c(SCc2c(F)cccc2Cl)nc(=O)c2c(C(=O)OC)cc(C3CC3)nc21
-7% | COC(=O)c1cc2oc3ccccc3c2n1Cc1c(F)cccc1Cl
-2% | CCn1cc(/C=C(\NC(=O)c2cc(OC)c(OC)c(OC)c2)C(=O)NCCCn2ccnc2)c2ccccc21
14% | CC(C)(C)OC(=O)N1CCC(c2c(C(=O)NCCc3ccccc3)cnn2-c2ccc(F)cc2)CC1
1% | CC(=O)c1ccc(Nc2cc(C)nc3nc(Cc4ccc(Cl)cc4)nn23)cc1
12% | O=C(Nc1ccc(F)cc1F)N1CCc2c(sc3c2CCCC3)C1c1ccc(F)cc1 (stereo not drawn)
-4% | COc1ccc(-c2csc3nc(-c4ccc(F)cc4)oc(=O)c23)cc1OC
4% | CCCOc1ccc(C(=O)Nc2nonc2-c2ccc(OCC)cc2)cc1
0% | COCCNC(=O)c1cnc2sc(N3CCC(C)CC3)nn2c1=O

Filtered by structure: the compounds so far with an aryl thioether with sulfur outside any ring
miR-21 FLuc | molecule
-31% | O=C(Cn1c(SCCOc2ccccc2)nc2ccccc21)N1CCOCC1
12% | COc1ccc(-c2noc(CSc3nnc(Cc4ccccc4)n3-c3ccccc3)n2)cc1OC
-2% | Cc1cc(C)c2c(c1)c(C)cc1nnc(SCc3ccccc3C#N)n12
-1% | C=CCc1c(C)nc2nc(SCC(=O)Nc3ccc(OCC)cc3)nn2c1C
-3% | Cc1cc(C)cc(-n2ccnc2SCC(=O)Nc2ccc(C)c(Cl)c2)c1
3% | Cc1ccccc1-c1nc(SCC(=O)NCc2ccco2)c2c(=O)n(C)c(=O)n(C)c2n1
1% | O=C(CSc1c2c(nc3ccc(Cl)cc13)CCCC2)NCc1ccccc1Cl
-35% | Cn1nnnc1SCCNCc1ccc(OCc2ccccc2)cc1
-9% | COc1cc(C2Oc3nc(SC)nnc3-c3ccccc3N2C(C)=O)cc(Cl)c1OC (stereo not drawn)
-25% | COc1cccc(-c2nc(SCc3cccc(Br)c3)n3[nH]c(=O)cc3n2)c1
12% | COc1ccccc1N1CCN(C(=O)CSc2nc(-c3ccc(C(C)C)cc3)no2)CC1
15% | CCn1c(SCc2c(F)cccc2Cl)nc(=O)c2c(C(=O)OC)cc(C3CC3)nc21
